Bioassay records: PubChem BioAssay, National Center for Advancing Translational Sciences (NCATS)
Rango complex inh: qHTS Assay for Inhibitors of Rango (Ran-regulated importin-beta cargo) - Importin beta complex formation; 340,000 tested, 0.031% active; Potency, µM (highest dose often 92.2 µM), for inactives: at the highest dose inhibition of complex formation; Rango CFP/YFP FRET sensor + importin beta, 45 min; active = rising FRET ratio curve, often small or poorly fitted; inconclusive = mostly compound fluorescence or quenching in the first reads; inactive = flat curves in all reads;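 also: potency is read from the fitted curve at half-maximal effect; 0% = DMSO wells and 100% = buffer wells lacking importin beta; nearly all actives have a fitted effect of over 15% in size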
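FRET biosensor (snurportin 1 IBB flanked by EYFP and cerulean), 50 nM, with compound 5 min, then 0.125 microM importin beta in PBS, 1 mM DTT, 0.02% Tween-20, 0.1% BSA. CFP/YFP ratio read after 45 min at room temperature; pre-read flags interference.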
miR-21 FLuc: qHTS Assay for Modulators of miRNAs and/orActivators of miR-21 | HeLa miR-21 FLuc reporter, luciferase, 48 h | Potency, µM (series often up to 38.3 µM), for inactives: at the highest dose reporter change, positive = more light | 340,000 tested, under 10 active | AID 2288, 2010; active = well fitted rising curve with a large enough effect; inconclusive = small, poorly fitted or top-dose-only effect; inactive = no such curve, though single readings can be large or run the other way;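 also: % of control where 0% means no effect; miR-21 action dims this reporter so a rising signal means less miR-21 action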
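Using DMEM plus 10% FBS, HeLa miR-21-FLuc cells are incubated with test compounds (final up to about 40uM) for 48 hours; firefly luciferase signal is then imaged following reagent-mediated lysis.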
Rango dissoc inh: qHTS Assay for Inhibitors of RanGTP induced Rango (Ran-regulated importin-beta cargo) - Importin beta complex dissociation. Snurportin-1 (Homo sapiens) + GTP-binding nuclear protein Ran (Homo sapiens) + Importin …. Biochemical FRET Rango-importin beta, RanGTP-induced dissociation. Potency, µM (series often up to 46.1 µM), inactives show at the top dose activity change, negative = inhibition. 340,000 tested, 0.071% active; active means falling FRET ratio curve, often poorly fitted, with flat reads before Ran was added; inconclusive means other falling curves, or compound fluorescence or quenching; inactive means flat or rising ratio curve;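 also: potency is read from the fitted curve at half-maximal effect; % of control where 0% means no effect; nearly all actives have a fitted effect of over 45% in size; -100% = wells without RanGTP and RCC1; the record marks most hits as doubtful in a second field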
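Recombinant Rango FRET biosensor (EYFP–snurportin 1 IBB–cerulean CFP10) at 0.1 uM premixed with 0.25 uM importin beta in PBS, 1 mM DTT, 0.02% Tween-20, 0.1% BSA. Compound added 5 min; RanGTP-RCC1 (0.6 uM Ran, 2 mM GTP, 0.2 uM RCC1) then triggers release, read at 45 min.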
GLA inh pH 4.5: qHTS Assay for Inhibitors of Human alpha-Galactosidase at pH 4.5. Alpha-galactosidase A (Homo sapiens), P06280. purified enzyme, 4-MU-alpha-Gal fluorescence, pH 4.5. activity change, negative = inhibition, % at 105 µM. 230,000 tested, under 10 active. AID 1467, 2008; inconclusive = small, poorly fitted or top-dose-only inhibition, or a rising curve; inactive = flat fitted curve, though single readings scatter; no compound was filed as active;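 also: 0% = full activity with enzyme and -100% = basal without enzyme; dose as in the result columns while the protocol names 77 µM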
Target sequence (P06280 whole entry, looked up): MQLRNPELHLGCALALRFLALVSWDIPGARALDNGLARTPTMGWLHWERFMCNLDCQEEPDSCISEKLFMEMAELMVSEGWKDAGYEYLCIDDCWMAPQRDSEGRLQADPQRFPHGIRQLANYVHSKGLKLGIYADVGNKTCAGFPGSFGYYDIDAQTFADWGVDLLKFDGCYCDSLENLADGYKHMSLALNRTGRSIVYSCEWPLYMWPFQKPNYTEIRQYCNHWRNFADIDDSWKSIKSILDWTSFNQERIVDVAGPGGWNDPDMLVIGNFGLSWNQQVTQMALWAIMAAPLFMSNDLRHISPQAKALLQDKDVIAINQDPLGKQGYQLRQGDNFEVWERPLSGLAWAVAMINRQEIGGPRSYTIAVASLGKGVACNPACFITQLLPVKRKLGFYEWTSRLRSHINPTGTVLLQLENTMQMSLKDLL
Starred values were filed as active, the others as inactive; ? = inconclusive; . = no result given; & = joins results of further samples; [ ] = another dose, or the depositor's remark. Only part of the results is shown, so the mix of outcomes need not match the whole.

Rango complex inh | miR-21 FLuc | Rango dissoc inh | GLA inh pH 4.5 | structure
. | -28% | . | 1 | c1coc(-c2nnc(-c3ccc4c(c3)OCO4)o2)c1
1.8% | 0% | -4% | . | O=C(C1CCCC1)N1CCCC(Nc2ccc(F)cc2)C1 (configuration not stated)
? | -1% | 0% | -3 | Cc1cc(C)c(C)c(S(=O)(=O)N2CCN(Cc3nc4ccccc4[nH]3)CC2)c1C
-4.1% | -21% | 13% | 5 | O=C(CSc1ccc2ccccc2c1)NCc1cccs1
19% | -7% | 1% | . | COC(=O)/C(=C(O)\C=C\c1ccccc1[N+](=O)[O-])c1nc2ccccc2[nH]1
0.2% | 1% | 5% | -12 | CC(C)CC(NC(N)=O)C(=O)Nc1ccc(Oc2ccccc2)cc1 (configuration not stated)
-1.1% | -6% | -11% | 3 | Cc1cc(C2=NNC(=NC3CCCCC3)SC2)c(C)n1-c1c(C)n(C)n(-c2ccccc2)c1=O
6.2% | 1% | 32% | . | NNC(=O)C1COc2cc3ccccc3cc2O1 (configuration not stated)
0.3% | 9% | -19% | -8 | CCN1CCN(S(=O)(=O)c2ccc(Cl)c(C(=O)Nc3nnc(CC(C)C)s3)c2)CC1
3.7% | 4% | 0% | 3[21.1 µM] | Cc1c(C)n2c3c(cccc13)CC2
0.4% | -4% | 12% | 7 | O=C(NCCO)NC(=S)c1ccccc1
7.8% | -5% | 5% | 2 | CN(C)c1ccc(/C=N\S(=O)(=O)c2ccccc2)cc1
? | 2% | -7% | -8 | COC(=O)CN1C(=S)N(c2ccc(OC)cc2)C(=O)/C1=C/c1ccc(OC)cc1
0.0% | 4% | 2% | 5 | C=CCNC(=O)c1onc(CSc2cccc3ccccc23)c1C(=O)O
0.7% | -2% | -3% | 4 | Cn1c(=O)[nH]c(=O)c2c1nc(CN1CCOCC1)n2CCc1ccccc1
0.1% | -4% | 10% | -3 | COC(=O)c1ccccc1NC(=O)C1CCN(S(=O)(=O)c2cc(OC)ccc2OC)CC1
-2.2% | -1% | 1% | 9 | Cc1ccc(NC(=O)CSc2nnc3ccccn23)cc1S(=O)(=O)N1CCOCC1
-2.0% | 7% | -20% | . | CC(C)c1ccccc1NC(=O)COC(=O)c1cccnc1
-3.6% | -1% | 2% | 6 | Cc1ccc(S(=O)(=O)n2nc(-c3cccnc3)nc2N)cc1
-1.0% | -1% | -1% | 17 | CN1CCN(C(N)=NC(=O)c2ccccc2)CC1
2.6% | 15% | 17% | . | COc1ccc(NS(=O)(=O)c2cccc(C(=O)N3CCN(Cc4cc(OC)ccc4OC)CC3)c2)cc1
-3.3% | 4% | -4% | 1 | CC1CN(C(=O)C2CCCN2S(=O)(=O)c2ccc(Cl)cc2)CC(C)O1 (configuration not stated)
-1.3% | . | -7% | . | Cn1cccc1C(=O)OCC(=O)Nc1ccc2[nH]c(=O)[nH]c2c1
3.0% | . | 37% | . | CC(C)n1nc(C(=O)Nc2ccc3c(c2)OCO3)c2ccccc2c1=O
0.6% | -53% | -2% | -7 | COc1ccc(-c2nnc(SCC(=O)c3cccs3)o2)cc1
-2.4% | -9% | 8% | 7 | COc1ccc([N+](=O)[O-])cc1/C=N/Nc1nc(N2CCCCC2)nc(N2CCCCC2)n1
-0.6% | 4% | 17% | . | N#Cc1cccc(C(=O)N(CCc2ccccc2)Cc2cccs2)c1
-1.6% | 5% | 0% | -1 | CCc1cccc(NC(=O)Cn2ncn3c(cc4ccccc43)c2=O)c1
? | -5% | -3% | -2 | CCOC(=O)c1[nH]c(=O)[nH]c1CSc1ccccn1
0.4% | -5% | 11% | -6 | Cc1ccc(CSc2sc(C(=O)c3ccccc3)c(N)c2C#N)cc1
1.8% | -12% | -3% | -1 | Cn1nnnc1SCCNC/C=C/c1ccccc1
5.9% | 0% | 17% | -4 | O=S(=O)(Nc1cccnc1)c1ccc2c(c1)OCCO2
-0.2% | -5% | 0% | -25 | COc1ccc(OCC(O)CNC(=O)Nc2cc(C)cc(C)c2)cc1 (configuration not stated)
-1.7% | -33% | -15% | -2 | COc1ccc(OC)c(Nc2ncnc3ccccc23)c1
5.8% | 1% | 3% | 4 | CCOC(=O)C1C(=O)OC(C)(C)C1C(C)C(=O)c1ccccc1 (configuration not stated)
-0.1% | ? | 1% | -10 | Cc1cc(Cl)c(S(=O)(=O)N2CCN(c3ccccn3)CC2)cc1OCC(=O)NC1CCCCC1
-0.3% | . | 22% | . | COc1ccc(CC(=O)Nc2cccc(Cl)c2C)cc1S(=O)(=O)N1CCOCC1
-3.1% | 0% | 1% | -4 | CCCCCCCCC(=O)NNC(=O)c1c(O)c2ccccc2n(CC)c1=O
4.0% | -4% | 0% | 10 | O=C(O)c1ccccc1-c1nc2ccccc2c(=O)[nH]1
3.9% | 1% | -3% | . | Cc1cccc(N(CC(=O)NCCc2ccccc2)C(=O)c2csnn2)c1
-0.3% | -10% | 2% | -6 | OCCN1CCN(c2cc(-c3ccccc3)c3ccccc3n2)CC1
-1.2% | 0% | 2% | 4 | CC(C)(C)NC(=O)Cn1c(SCC(N)=O)nc2ccccc21
1.5% | ? | -3% | 0 | Cc1c(C(=O)Nc2ccc3c(c2)OCCO3)sc2nc(-c3ccccc3)cn12
-0.6% | -15% | 3% | . | C[C@H](NC(=O)c1cc2c([nH]c3ccccc32)c(-c2ccccc2)n1)C(=O)O
-4.1% | -23% | -4% | 3 | CCOC(=O)c1c(CN2CCN(CCO)CC2)n(C)c2cc(Br)c(OC)cc12
-3.5% | -1% | 1% | 7 | CCOc1ccc(NC(=S)NC2CC3CCC(C2)N3Cc2ccco2)cc1 (configuration not stated)
? | 25% | 4% | . | Cc1ccnc(OC(C(=O)O)C(OCc2ccccc2)(c2ccccc2)c2ccc(C(F)(F)F)cc2)n1 (configuration not stated)
1.3% | -3% | 4% | . | C/C(=N/NC(=O)CNC(=O)COc1ccccc1)c1ccc(Cl)cc1
-4.1% | 16% | -12% | -5 | CC(SC#N)C(=O)C12CC3CC(CC(C3)C1)C2 (configuration not stated)
-0.7% | . | -16% | . | COc1cc(OC)cc(-c2c(-c3ccc(F)cc3)c3cc(-c4ccc5[nH]ccc5c4)ccc3n2C)c1
-0.4% | -11% | 1% | . | CC(=O)Nc1ccc(C(=O)Nc2ccc(S(=O)(=O)N3CCOCC3)cc2)cc1
0.0% | -6% | -7% | 2 | CCN(CC)C(=O)CSc1nc2ccccc2c(=O)n1OC(C)C
0.5% | 0% | 13% | 4[21.1 µM] | O=C1c2ccccc2NC(c2ccco2)N1NS(=O)(=O)c1ccccc1 (configuration not stated)
-4.4% | -4% | -5% | 5 | N#CC(c1ccccn1)c1ncc(C(F)(F)F)cc1Cl (configuration not stated)
-0.4% | . | -10% | . | O=C(COc1ccc(Cl)cc1Cl)Nc1cccc(-c2ccc(N3CCOCC3)nn2)c1
-2.7% | 1% | 5% | -5 | CCc1c(C)nc(N)c(C#N)c1-c1ccccc1

Three compounds drawn at random from those above:
Rango complex inh | miR-21 FLuc | Rango dissoc inh | GLA inh pH 4.5 | structure
-0.4% | -11% | 1% | . | CC(=O)Nc1ccc(C(=O)Nc2ccc(S(=O)(=O)N3CCOCC3)cc2)cc1
0.0% | -6% | -7% | 2 | CCN(CC)C(=O)CSc1nc2ccccc2c(=O)n1OC(C)C
-0.7% | . | -16% | . | COc1cc(OC)cc(-c2c(-c3ccc(F)cc3)c3cc(-c4ccc5[nH]ccc5c4)ccc3n2C)c1

Later entries.
Rango complex inh | miR-21 FLuc | Rango dissoc inh | GLA inh pH 4.5 | structure
-0.1% | -9% | 0% | -11 | CCOC(=O)N1CCC(n2c(=S)[nH]c3cc(OCC)c(OCC)cc3c2=O)CC1
. | -4% | . | 4 | O=c1c2ccccc2oc2nc3ccn(Cc4ccncc4)c(=O)c3cc12
0.9% | -28% | 6% | -7 | Clc1ccccc1-c1csc(Nc2cccnc2)n1
-2.9% | 3% | 17% | . | CCCC(C(=O)NC1CCCC1)N(Cc1ccccc1)C(=O)c1snc(C(N)=O)c1N (configuration not stated)
2.4% | . | -13% | . | CC(=O)c1cccc(NCC(=O)Nc2cccc(S(=O)(=O)N3CCCCC3)c2)c1
-0.6% | -1% | -20% | 2 | Cc1c(NC(=O)c2ccco2)cccc1C(=O)NN1C(=O)c2ccccc2C1=O
0.4% | -10% | -13% | 8 | COC(=O)C1=C(N)N(c2ccccc2C(F)(F)F)C2=C(C(=O)CCC2)C1c1ccc2c(c1)OCO2 (configuration not stated)
-0.5% | -11% | 1% | -3 | Cn1c(=O)c(C(=O)CSc2nncs2)c(N)n(Cc2ccccc2)c1=O
? | . | ? | . | COc1cc(/C=C/C(=O)OCC(=O)NCc2ccc(F)cc2)ccc1O
2.5% | -4% | 30% | 7 | Cc1ccccc1OCC(=O)N/N=C/c1cn(C)c2ccccc12
0.2% | 7% | ? | -6 | COC(=O)c1ccc(/C=N/OCC(=O)NCc2ccc(F)cc2)cc1
1.1% | -9% | 6% | 0 | O=C(NCCCn1ccnc1)c1cc([N+](=O)[O-])cc([N+](=O)[O-])c1
1.0% | 1% | 4% | -21 | CC1(C)CC(C(CC(=O)O)c2ccccc2)CCO1 (configuration not stated)
-0.3% | . | -13% | . | CC(=O)c1nn(-c2ccc(C)cc2)cc1C(=O)c1cccc(Br)c1
1.2% | -30%&-42% | -12% | . | CC(=O)Nc1ccc(/C=C/c2noc(-c3ccccc3O)n2)cc1
-0.7% | -26% | 1% | 5 | CC(C)CCn1c(Sc2nc3ccccc3s2)nc2c1c(=O)[nH]c(=O)n2C
3.3% | 0% | 0% | . | Cc1cccc(C)c1NC(=O)CNC(=O)c1cccnc1
? | -18% | -9% | 2 | CCOc1ccc(S(=O)(=O)c2c(C(=O)c3ccc(C)cc3)cnc3cc4c(cc23)OCCO4)cc1
3.2% | -1% | 4% | -2 | Cc1nc(-c2cccc(S(=O)(=O)N3CCCCC3)c2)cs1
-4.8% | -7% | -17% | -6 | CCOc1ccc(-c2cc(N)n(S(=O)(=O)c3ccc(OC)c(OC)c3)n2)cc1
0.6% | -18% | -5% | -5 | CN1CCN(C(=S)c2cn(Cc3ccccc3)c3ccccc23)CC1
0.3% | -7% | -4% | 6 | O=C(N1CCOCC1)N1CCN(c2nc(-c3ccc(F)cc3)cs2)CC1
3.6% | -21% | -5% | 2 | CC1CCC(NC(=O)Cn2c(=O)[nH]c3ccsc3c2=O)CC1 (configuration not stated)
-0.3% | -7% | -16% | -4 | COC(=O)c1ccc(C2C(C#N)=C(N)Oc3cc(C)n(C)c(=O)c32)cc1 (configuration not stated)
-4.9% | 0% | 12% | 9 | Cc1ccccc1OCC(=O)OC1CCN(C)CC1
-3.4% | . | 0% | . | C[C@]12c3[nH]c4ccccc4c3CCN1C(=O)C(CC(=O)NCc1ccco1)C[C@@H]2C(=O)N1CCCCC1 (some centres not stated)
0.0% | 4% | -2% | 4 | O=C(CSc1nnc(-c2ccccn2)n1-c1ccc(Cl)cc1)Nc1ccc2c(c1)OCO2
1.3% | 0% | 4% | -10 | CCOc1ccc(Cl)cc1CSc1ncn[nH]1
2.1% | . | -2% | . | N#Cc1cccc(C(=O)OCC(=O)NC(=O)NC2CCCCC2)c1
? | -9% | ? | 0 | COc1ccnc(CSC(N)=Nc2cccc(C(F)(F)F)c2)c1
1.3% | 1% | -1% | 17 | COc1ccccc1N1C(=O)CCC1(C#N)c1ccccc1 (configuration not stated)

Compound profiles (already shown).
CCOC(=O)N1CCC(n2c(=S)[nH]c3cc(OCC)c(OCC)cc3c2=O)CC1 is listed with Rango complex inh = -0.1%; miR-21 FLuc = -9%; Rango dissoc inh = 0%; GLA inh pH 4.5 = -11
C/C(=N/NC(=O)CNC(=O)COc1ccccc1)c1ccc(Cl)cc1 is listed with Rango complex inh = 1.3%; miR-21 FLuc = -3%; Rango dissoc inh = 4%; GLA inh pH 4.5 = .
